VDR inhibitor: vitamin D3 receptor (human) inhibition; VDR-SRC2-3 peptide fluorescence polarization, 2 h; AID 504847; 400,000 compounds, 0.93% hits; Potency, µM, for the others: max response, negative = inhibition, actives largely listed as inhibitors; P11473; active means well fitted inhibition curve with a large enough effect; inconclusive means small, poorly fitted or top-dose-only effect, or another doubt; inactive means no such curve, though single readings can be large or run the other way; further: series mostly up to about 120 µM
Target sequence (P11473 whole entry, looked up): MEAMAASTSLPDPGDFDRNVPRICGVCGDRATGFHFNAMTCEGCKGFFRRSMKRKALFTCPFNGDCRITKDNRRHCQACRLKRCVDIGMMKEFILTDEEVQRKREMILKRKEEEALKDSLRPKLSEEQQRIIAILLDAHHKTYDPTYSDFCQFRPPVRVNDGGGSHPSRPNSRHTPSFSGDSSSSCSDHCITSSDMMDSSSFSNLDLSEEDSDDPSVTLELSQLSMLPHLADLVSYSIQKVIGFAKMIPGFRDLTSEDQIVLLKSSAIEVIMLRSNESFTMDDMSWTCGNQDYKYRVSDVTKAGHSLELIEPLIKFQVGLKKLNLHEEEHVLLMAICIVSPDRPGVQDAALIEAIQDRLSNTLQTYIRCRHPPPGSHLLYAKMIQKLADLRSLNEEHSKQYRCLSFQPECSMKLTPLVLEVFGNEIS
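Fluorescence polarization assay measuring small-molecule disruption of VDR binding to the coregulator peptide SRC2-3. Compounds were pin-transferred (23 nl) into the reagent mix and incubated 2 h at room temperature before reading.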
The depositor's hits bear a star; u = inconclusive; & = joins results of further samples. On the % scale 0 is the no-effect control and ±100 the full control effect; potency means the concentration at half of the fitted maximal effect. A portion of the library; rates above refer to the full screens.

compound	VDR inhibitor
Cc1nn(CC(=O)N2CCC(C)CC2)c(=O)c2nn(-c3ccccc3)c(C)c12	5%
Cn1c(=O)c2c(=O)cc(N)[nH]c2n(C)c1=O	3%
CCSc1cc(N2CCCC2)nc(-c2ccccc2Cl)n1	1%
COc1ccc(C(=O)NCCN2CCOCC2)cc1OC	3%
COc1cccc(-c2nc(SCC(=O)NCC3CCCO3)c(-c3ccc(C)cc3)[nH]2)c1 (configuration not stated)	-18%
COc1cc(CNCc2ccncc2)cc(OC)c1OC	-28%
Cn1c(NC(=O)C[n+]2cc(-c3ccccc3)n3c2CCC3)cc(=O)n(C)c1=O	-3%
Cc1ccccc1-c1ccc(/C=C2/SC(N3CCOCC3)=NC2=O)o1	1%
COc1cc(NC(=O)c2ccccc2F)ccc1NC(=O)c1ccccc1Cl	17%
Cc1ccc(C(=O)NC2(C(F)(F)F)N=C(c3ccccc3)N(C3CCCCC3)C2=O)cc1 (configuration not stated)	-1%
Cn1nccc1C(=O)OCC(=O)Nc1nc(-c2ccccc2)cs1	3%
O=C(c1ccncc1)N1CCN(C2CCCCC2)CC1	0%
CCCn1c(=O)c(C(=O)Nc2c(C)n(C)n(-c3ccccc3)c2=O)c(O)c2ccccc21	9%
COc1cc2sc3ccc(C#Cc4ccccn4)cc3c(=O)c2cc1OC	-16%
O=C1C2CC=CCC2C(=O)N1c1n[nH]c(Cc2ccccc2)n1 (configuration not stated)	-14%
CCOC(=O)/C=C1\CC(=O)Nc2nonc2N1	-6%
CC(C)(C)c1csc(NC(=O)c2cccs2)n1	-7%
O=C(Nc1ccc2oc(=O)ccc2c1)c1cccnc1Cl	1%
O=C(Nc1ccc(N2CCOCC2)nc1N1CCOCC1)c1cccc(C(F)(F)F)c1	-21%
Cn1cccc1C(C#N)c1ncc(C(F)(F)F)cc1Cl (configuration not stated)	u
COc1ccc(-c2nnn(CC(=O)N(Cc3ccccc3Cl)C(C(=O)NCC3CCCO3)c3ccco3)n2)cc1OC (configuration not stated)	-12%
CCOC(=O)c1[nH]c2ccc(OCC)cc2c1NC(=O)CN1CCCC(C)C1 (configuration not stated)	4%
Cc1ccc2oc(C(=O)NCC(c3ccc(Cl)cc3)N3CCOCC3)c(C)c2c1 (configuration not stated)	16%
COc1ccc(Cc2nc(-c3ccc(NC(=O)c4cccnc4)cc3)no2)cc1	-5%
Cc1ccc2nc(CCl)[n+]([O-])c(-c3ccccc3)c2c1	u
O=C(NCCCN1CCN(c2ccccc2F)CC1)C1CCCN(S(=O)(=O)c2cnc[nH]2)C1 (configuration not stated)	-10%
CC1CCCN(C(=O)CCNS(=O)(=O)c2ccc3c(c2)oc(=O)n3C)C1 (configuration not stated)	10%
COc1cccc(CC(=O)OCC(=O)NC2CCCC2)c1	-17%
Cc1cc(=O)n2[nH]c(N)c(N=Nc3ccccc3F)c2n1	-12%
Cc1ccc(CNC(=O)c2cc(NS(=O)(=O)c3ccc(C)cc3)ccn2)cc1	6%
CC(C)CC(=O)N1CCN(S(=O)(=O)c2ccc(Cl)cc2)CC1	-12%
COC(=O)c1ccc(Cn2nnc3c(=O)[nH]c(C4CCCN(S(=O)(=O)c5cccc(Cl)c5)C4)nc32)cc1 (configuration not stated)	0%&7%
CCCn1c2ccc(C)cc2c2nnc(SCCN3CCOCC3)nc21	-13%
CC(C)Cn1c(/C=C/c2ccc(F)cc2)nc2ccccc21	-1%
CCN(CC)C(=O)CN1C(=O)NC2(CCc3ccccc3C2)C1=O (configuration not stated)	0%
CCOC(=O)C(NC(=O)c1ccccc1)=C(C)C	-2%
CN(C)C(=O)CSc1nc2ccccc2n1Cc1ccccc1	-2%
c1ccc(-c2cc(-c3ccccc3)on2)cc1	u
Cc1ccc(C)c(S(=O)(=O)N2CCN(C(=O)c3cc(S(=O)(=O)NCc4ccccc4)ccc3C)CC2)c1	2%
CCOc1ccc(-c2n[nH]c(C)c2-c2ccccc2OC)c(O)c1	-2%

Structural class: the compounds so far containing a furan ring, fused or not
compound	VDR inhibitor
Cc1ccccc1-c1ccc(/C=C2/SC(N3CCOCC3)=NC2=O)o1	1%
COc1ccc(-c2nnn(CC(=O)N(Cc3ccccc3Cl)C(C(=O)NCC3CCCO3)c3ccco3)n2)cc1OC (configuration not stated)	-12%
Cc1ccc2oc(C(=O)NCC(c3ccc(Cl)cc3)N3CCOCC3)c(C)c2c1 (configuration not stated)	16%

The listing continues:
compound	VDR inhibitor
Cc1noc2ncnc(N3CCCC3)c12	-19%
Cc1ccc(C(=O)Nc2ccc(S(=O)(=O)NC3=NCCCCC3)cc2)cc1S(=O)(=O)N1CCOCC1	-1%
O=c1cc(CN2CCN(S(=O)(=O)c3ccccc3)CC2)nc2sccn12	3%
CCOC(=O)c1ccc(NC(=O)NNS(=O)(=O)c2cc(OC)ccc2OC)cc1	-3%
O=C1C(c2ccccc2)SC(=Nc2ccccc2)N1S(=O)(=O)c1ccccc1 (configuration not stated)	89µM*
COC(=O)c1c(NC(=O)CC2SC(N)=NC2=O)sc(C)c1C (configuration not stated)	17%
O=C(Nc1ccc2c(c1)OCO2)c1ccccn1	-4%
CCOc1ccccc1Nc1nc(N)nc(Cl)c1CC	10%
COc1ccc(-n2cnc3c(sc4nc(N5CCOCC5)c5c(c43)CCCC5)c2=O)cc1	-17%
Cc1ccc(NC(=O)NC2OC(=O)c3ccccc32)cc1 (configuration not stated)	7%
COc1cc2c(cc1NC(=O)c1ccccc1C)n(C)c(=O)n2C	-9%
O=C(O)c1cc2cc(Cc3cccnc3)ccc2o1	8%&6%
CCN(c1ccccc1)S(=O)(=O)c1nnc(NC(=O)COc2ccc(OC)cc2)s1	-4%
CCC(=O)c1ccc(OCC(=O)Nc2ccccc2N2CCOCC2)cc1	-6%
CC1(C)Cc2ccccc2C(NNC(=O)c2ccccn2)=N1	-7%
CC(=NNC(=O)Cn1ccc(C(F)(F)F)n1)c1ccc(-n2ccnc2)cc1	-23%
Cc1cc(C)cc(NC(=O)Cn2nnc(-c3ccccc3F)n2)c1	6%
Cc1cc(C(=O)CSc2nnc(N)s2)c(C)n1Cc1cccs1	22%
O=C1CCCC2=C1C(c1ccc(Cl)cc1)C1C(=O)c3ccccc3C1=N2 (configuration not stated)	7%
NS(=O)(=O)c1ccc(CNC(=O)c2scc3c2CCCC3)cc1	9%
COc1ccc(CSCCNC(=S)Nc2ccccc2)cc1Cl	-34%
CCc1ccc2c(c1)-c1ccccc1S(=O)(=O)N2CC(=O)N1CCC(C)CC1	6%
CCOc1ccc(CC(=O)N/N=C(\C)c2cccnc2)cc1OCC	-4%
Cc1oc2ncn(CC(C)C)c(=O)c2c1C(=O)Nc1ccc(Cl)cn1	1%
COc1ccc(NC(=O)CN(C)C(=O)Cc2ccc(S(=O)(=O)N3CCOCC3)s2)cc1	1%
CCOC(=O)C1CCN(C(=O)CN2C(=O)COc3ccc(C(C)(C)C)cc32)CC1	-15%
Cc1ccc(Nc2nc(NCc3ccco3)c3ccccc3n2)cc1	0%
NNC(=O)c1ccc(N2CCCCCC2)c([N+](=O)[O-])c1	-5%
CCCCn1cnc2cc(NCc3ccncc3)ccc21	-2%
CCOC(=O)NC(=O)C(/C=N/c1sccc1C(=O)OC)=C(\C)O	14%
COc1ccccc1N1CCN(C(=O)C2CCN(C(=O)c3ccccc3C)CC2)CC1	-5%
CC(=O)c1ccc(N2CCN(C(=O)COc3ccccc3F)CC2)c(F)c1	-12%

Shown field by field: two of the compounds above.
COc1ccc(-n2cnc3c(sc4nc(N5CCOCC5)c5c(c43)CCCC5)c2=O)cc1
  VDR inhibitor: -17%
Cc1ccc(NC(=O)NC2OC(=O)c3ccccc32)cc1 (configuration not stated)
  VDR inhibitor: 7%

Additional compounds:
compound	VDR inhibitor
COc1cccc(-c2nnc(SC(C(=O)c3c[nH]c4ccccc34)c3ccccc3)n2C)c1 (configuration not stated)	4%
O=C(N/N=C/c1ccc(N2CCOCC2)o1)c1cccc(C(F)(F)F)c1	25µM*
Cc1cc(C)c2nc(C(F)(F)F)nc(NCCCN3CCCC3=O)c2c1	-4%
COc1cccc(N2[C@@H](CC(C)=O)c3ccc(/C=C/C(C)=O)cc3S2(=O)=O)c1	u
COc1ccc(CCN2C(=O)c3[nH]nc(-c4ccccc4O)c3C2c2ccccc2)cc1 (configuration not stated)	7%
CCOC(=O)C1CCCN(C(=O)c2ccc(-n3ccc4ccccc43)s2)C1 (configuration not stated)	12%
COc1ccc(CN2CCN(C(=O)c3cc(C4CC4)nn3-c3ccccc3)CC2)cc1F	-9%
Cc1cc(C(=O)COC(=O)c2ccc3c(c2)OCO3)c(C)n1CC1CCCO1 (configuration not stated)	3%
O=[N+]([O-])c1cccc2nc3ccccc3c(NCCCn3ccnc3[N+](=O)[O-])c12	-15%
O=C1N=C(N2CCOCC2)S/C1=C\c1ccc(-c2ccccc2Cl)o1	-18%
CN(C)S(=O)(=O)c1cccc(C(=O)Nc2cc(Cl)cc(Cl)c2)c1	2%
Cc1ccc(-c2nnc3sc(C4COc5ccccc5O4)nn23)cc1 (configuration not stated)	2%
Fc1ccc2nc(Nc3nc4cc5c(cc4s3)OCCO5)sc2c1	-27%
CC(=O)c1ccc(COC(=O)c2cc3ccccc3oc2=O)cc1	-9%
CC1CCC(=O)N(CCSc2ccccc2)CC1 (configuration not stated)	2%
O=C(N=C1SC2CS(=O)(=O)CC2N1c1cccc(Cl)c1Cl)C1CCCO1 (configuration not stated)	-5%
COC(=O)c1c(C)[nH]c(C(=O)OCC(=O)N2c3ccccc3NC(=O)C2(C)C)c1C	-10%
COCCN(CCOC)C(=O)CN1C(=O)NC(Cc2c[nH]c3ccccc23)C1=O (configuration not stated)	-12%
O=c1[nH]c(=O)c2nc(Br)n(C3OC(CO)C(O)C3O)c2[nH]1 (configuration not stated)	3%
Cc1cc(C)c(S(=O)(=O)N2CCCC(C(=O)NCCC3=CCCCC3)C2)c(C)c1 (configuration not stated)	-2%
Cc1ccc(S(=O)(=O)Nn2c(O)c(C=C3N=c4ccccc4=N3)sc2=S)cc1	3%
CN1C(=O)N(CC(=O)N2CCN(S(=O)(=O)/C=C/c3ccccc3)CC2)C(=O)C12CCCCC2	12%
CCS(=O)(=O)NCCCc1ccccc1	-2%
COC(=O)c1ccc(CSc2nc(N)cc(N)n2)cc1	8%
Nc1nc(NCc2ccc(Cl)cc2)nc(NCCO)c1[N+](=O)[O-]	1%
O=C(CCc1nc2cccnc2n1Cc1cccs1)Nc1cccc(C(F)(F)F)c1	u
COc1ccccc1C1CC(c2cccc(NS(C)(=O)=O)c2)=NN1S(=O)(=O)c1ccccc1 (configuration not stated)	-11%
Cc1cc(/C=C2/C(=O)N(C)C(=S)N2C)ccc1N1CCCC1	-11%
O=C(C1CC1)N1N=C(c2ccccc2)CC1(O)C(F)(F)F (configuration not stated)	-4%
CCn1c(N)c(Br)c(=O)[nH]c1=O	-5%
Cc1cccc(-n2nc3c(c2NC(=O)C2CC2)CS(=O)(=O)C3)c1C	-23%
O=c1oc2ccccc2c2[nH]ccc12	19%

Entries above marked active in VDR inhibitor:
compound	VDR inhibitor
O=C1C(c2ccccc2)SC(=Nc2ccccc2)N1S(=O)(=O)c1ccccc1 (configuration not stated)	89µM*
O=C(N/N=C/c1ccc(N2CCOCC2)o1)c1cccc(C(F)(F)F)c1	25µM*

(cont.)
compound	VDR inhibitor
CCCC(=O)Nc1cc(C)cn(Cc2c(F)cccc2Cl)c1=O	-26%
O=C(/C=C/c1ccc(O)c(O)c1)OC1C(O)CC(OC(=O)/C=C/c2ccc(O)c(O)c2)(C(=O)O)CC1O (configuration not stated)	-16%
Cc1ccc(C)n1NC(=O)c1ccccc1O	9%
Cc1cccc(CN2C(=O)c3ccccc3Sc3ccc(C(=O)NCc4cccs4)cc32)c1	3%
O=C(NCCCSc1ccccc1)c1cc(Cl)ccc1O	-2%
C=C(C)CSc1nc(C)c(Cc2ccccc2)c(=O)[nH]1	14%
Cc1ccc(-n2c(-c3ccncc3)nnc2-c2cccs2)cc1	5%
O=[N+]([O-])c1cccc(S(=O)(=O)c2cccc([N+](=O)[O-])c2)c1	-2%

Structural class: the compounds so far with a tert-butyl group
compound	VDR inhibitor
CC(C)(C)c1csc(NC(=O)c2cccs2)n1	-7%
CCOC(=O)C1CCN(C(=O)CN2C(=O)COc3ccc(C(C)(C)C)cc32)CC1	-15%

Next structures
compound	VDR inhibitor
Cc1cc(NS(=O)(=O)c2ccc(NC(=O)CSc3nnc(-c4ccco4)n3Cc3ccco3)cc2)nc(C)n1	-5%
O=C(CSc1ccc(Cl)cc1)NNC(=O)c1ccncc1	-12%
CCOC(=O)Cc1nnc(NC(=O)CSc2nncn2C)s1	21%
O=C(CC1C(=O)NCCN1C1CCCC1)NCc1cccc(OC(F)(F)F)c1 (configuration not stated)	-6%
CNc1nc(-c2ccc3c(c2)CCN3C(=O)c2ccc(F)cc2)cs1	-11%
COc1ccccc1NC(=O)c1cnc(SCC(=O)N2CCOCC2)n(C)c1=O	4%
CC(C)NC(=O)N1CC[C@@]2(CCCN(C(=O)Oc3ccccc3)C2)C1	-9%
COCCCn1c(-c2ccccc2)nc2ccccc2c1=O	-19%
Nc1c(N2CCCC2)c2ccccc2oc1=O	1%
